Ab BasE inh – inhibitors of Acinetobacter baumannii siderophore enzyme BasE | inhibition, % (test concentration not listed) | 84,000 compounds, 0.1% hits | purified BasE, fluorescence polarization binding displacement;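 active = both replicates above 25% with normal brightness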;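 also: 0% = negative plate control signal and 100% = positive plate control signal; stock transfer was 100 nL into about 30 µL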
KSHV LANA nucl – inhibitors of KSHV LANA binding to nucleosomes; FITC-LANA1-23 / chicken nucleosome fluorescence polarization; hits give low values; z-score (no concentration beside the values); 51,000 compounds, 0.3% hits; AID 720717;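 active = both repeat wells score below -2 in polarization z-score versus plate sample wells, excluding overly bright wells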;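 also: 100 nL library stock added to about 30 µL; numbers are from one replicate; some results filed as inactive read as strong as hits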
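Test system: purified chicken nucleosomes with FITC-labelled LANA N-terminal peptide (1-23); Input: 240 nM purified chicken nucleosomes (480 nM peptide binding sites), final; Medium: TEN-BT buffer, pH 7.5; Timing: 10–45 min, room temperature; Technique: fluorescence polarization, 480 nm excitation, 535 nm parallel and perpendicular emission; Replication: duplicates.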
An asterisk follows results filed as active; x = no result given; & = joins results of further samples.

smiles | Ab BasE inh | KSHV LANA nucl
CN1CCN(c2c(N)cccc2Cl)CC1 | 1.3 | -0.44
NC(N)=NOCC[C@H](N)C(=O)O | -2.2 | 0.72
Cc1ccc(N=P(N(C)C)(N(C)C)C(C)(C)C)c(C)c1 | 0.8 | x
Cc1ccc2c(c1)N(CCC(=O)N1CCC3(CC1)OCCO3)C(=O)CO2 | -1.1 | -0.19
CCN(CC)P1(=S)OC(c2ccc(I)cc2)=Nc2c1c(C)nn2CCC#N (centres undefined) | -1.1 | x
CCCCC/C=C\C/C=C\C/C=C\C=C\[C@H](CCCC(=O)O)OO | -3.1 | -0.36
CC12CC[C@H]3[C@@H](CCC4(O)C[C@H](O)CCC34/C=N/NC(=O)c3ccccc3O)C1(O)CCC2C1=CC(=O)OC1 (some centres undefined) | -1.3 | -0.18
COc1ccc(C(=O)N2CCCC2=O)cc1 | x | 0.5&0.43
CNC(=O)O/N=C/c1ccc(F)c(Cl)c1 | -1.0 | 0.09
CN1CCN(c2c(N)c(=O)oc3ccccc23)CC1 | 0.2 | -0.59
CC1=NN(c2ccccc2)C(=O)/C1=C\c1c(O)[nH]c(=O)[nH]c1=O | 1.0 | 0.76
CN(C)C1=Nc2ccccc2P1(O)=S (centres undefined) | 0.8 | x
Brc1ccc2[nH]cc(/C=N/N3CCCCC3)c2c1 | -1.5 | x
COCCN1C(=O)C(C(=O)O)C2CC1(C)Oc1ccccc12 (centres undefined) | -0.7 | -0.94
c1ccc(CN2CCNCC2)nc1 | 1.2 | -1.5
CCn1c(C)cc2c(c1=O)C1(C(=O)Nc3ccccc31)C(C(=O)OC)=C(N)O2 (centres undefined) | 1.8 | 0.17
c1coc(CN2CCNCC2)c1 | 0.7 | -0.69
O=C1NC(=O)C(=CN2CCc3ccccc32)C(=O)N1 | 1.3 | -0.5
O=C(O)CCCN1CC=C(c2ccccc2)CC1 | x | 0.029
CC(OC(=O)c1cn(C)c2ccccc12)C(=O)N(C)c1ccccc1 (centres undefined) | -0.6 | x
Cc1ccc(NS(=O)(=O)c2ccc(OCC(=O)N3CCN(C)CC3)cc2)cc1 | -2.1 | 0.48
CCOP(C)(=O)CN1CCOCC1 (centres undefined) | 2.2 | -1.1
Cc1nn(Cc2ccccc2)c(C)c1C(=O)OCC(=O)N1CCCCC1C (centres undefined) | 0.9 | x
S=C=NCCc1ccccc1 | 0.8 | x
N#CCc1ccc(N)cc1 | 1.1 | x
COC(=O)C(O)(c1ccc(C)o1)C(F)(F)F (centres undefined) | 3.6 | x
Cc1ccc(Cn2cccc(C(=O)Nc3ccon3)c2=O)cc1 | -0.8 | -0.27
CCN1CCN(c2ncc(Br)cn2)CC1 | 0.3 | 0.25
COC[C@H]1OC(=O)c2coc3c2[C@@]1(C)C1=C(C3=O)[C@@H]2CCC(=O)[C@@]2(C)C[C@H]1OC(C)=O | 2.5 | 0.32
CN1C(=O)CCS(=O)(=O)C1c1ccc(Cl)cc1 (centres undefined) | -0.1 | -0.005
Cc1nc2scc(C)n2c1C=C(C#N)C#N | -2.6 | x
C1=C(c2ccccc2)CCN(Cn2cnc3ccccc32)C1 | 2.8 | x
C=CP(=O)(O)c1ccccc1 | 2.8 | 0.45
CCOC(=O)C1(c2ccccc2)CCN(CCC(C#N)(c2ccccc2)c2ccccc2)CC1 | x | 0.097
S=C1NC2=C(CCc3ccccc32)C(c2cccnc2)N1 (centres undefined) | 1.9 | -0.22
CCC(C)C(=O)O[C@H]1[C@H](O)C2C(CN3CC(C)CCC3[C@@]2(C)O)C2C[C@]34O[C@]5(O)C(OC(=O)C(C)(O)C(C)O)CC[C@@]3(C)C5C(OC(C)=O)[C@@H](OC(C)=O)C4[C@@]21O (some centres undefined) | -2.2 | -0.56
COc1cccc(N2CCNCC2)c1 | 5.7 | x
C#C[C@@H]1CC2C3CCC4=C[C@@H](OC(C)=O)CCC4C3CC[C@]2(C)[C@H]1OC(C)=O (some centres undefined) | x | -0.59
CCCCCCCCCCCCCCCCOC[C@@H](O)COP(=O)([O-])OCC[N+](C)(C)C | -1.6 | 0.27
CCCCCn1c(=O)c(C(=O)Nc2ccccc2S(N)(=O)=O)c(O)c2ccccc21 | 0.4 | 0.18
O=C(Cc1ccc(S(=O)(=O)N2CCCC2)s1)N1CCN(Cc2ccccc2)CC1 | -1.1 | x
C[C@@H]1C[C@@H]([C@H](O)CC2CC(=O)NC(=O)C2)C(=O)[C@@H](C)C1 | -2.3&-0.4 | -0.12&-0.13&0.092
Cn1c(O)c(C=Nc2ccccc2)c(=O)n(C)c1=O | -0.3 | -0.96
CC(C)COP(C)(=O)C(N)=O (centres undefined) | 2.0 | x
C[C@]12CCC(=O)C(O)=C1CC[C@@H]1[C@@H]2CC[C@]2(C)C(=O)CC[C@@H]12 | x | 0.17
COc1ccc(C(O)(C(=O)O)c2ccccc2)cc1 (centres undefined) | 0.1 | -0.014
NC(Cc1ccccc1)Cc1ccccc1 | -3.7 | -1.6
C=C1C2CC[C@H]3[C@]4(C)C[C@H](OC5OC(CO)C(OS(=O)(=O)O)C(OS(=O)(=O)O)C5OC(=O)CC(C)C)C[C@@H](C(=O)O)[C@H]4CC[C@]3(C2)[C@H]1O (some centres undefined) | 0.5 | -0.17

Overlap with the part before: four compounds, then new ones.
smiles | Ab BasE inh | KSHV LANA nucl
C[C@]12CCC(=O)C(O)=C1CC[C@@H]1[C@@H]2CC[C@]2(C)C(=O)CC[C@@H]12 | x | 0.17
COc1ccc(C(O)(C(=O)O)c2ccccc2)cc1 (centres undefined) | 0.1 | -0.014
NC(Cc1ccccc1)Cc1ccccc1 | -3.7 | -1.6
C=C1C2CC[C@H]3[C@]4(C)C[C@H](OC5OC(CO)C(OS(=O)(=O)O)C(OS(=O)(=O)O)C5OC(=O)CC(C)C)C[C@@H](C(=O)O)[C@H]4CC[C@]3(C2)[C@H]1O (some centres undefined) | 0.5 | -0.17
COC(=O)c1c(C)n(CCC2=CCCCC2)c2ccc(O)cc12 | -0.9 | 1
COC(C)C(O)(C(=O)OCC1=CCN2CC[C@H](O)[C@@H]12)C(C)C (some centres undefined) | -0.5 | 0.069
Cc1cc(C)c2c(n1)SCN(C)C2=N | x | -0.22
CCOC(=O)c1cc(CC)sc1/N=C/C1C(=O)NC(=S)NC1=O | -10 | x
CNC(=O)c1cn(C)c2ccccc12 | x | 0.26
CC[C@@H]1/C=C/C=C/C[C@H](C)[C@@H](O)[C@](C)(O)C(=O)[C@H](C)[C@@H](O)[C@H](C)C(=O)[C@H](C)[C@@H](O)[C@H](C)/C=C/C(=O)O[C@H]2[C@@H](C)[C@@H](CC1)O[C@@]1(CC[C@@H](C)[C@@H](C[C@H](C)O)O1)[C@@H]2C | 0.6 | 0.8
CN1C(=O)N(C)C(=O)C(Cc2ccccn2)(Cc2ccccn2)C1=O | 1.8 | 0.045
NCCc1nc2cc(C(F)(F)F)ccc2s1 | 0.0 | x
CCCCc1nc2ccccc2c(=O)n1-c1ccc(C)cc1 | 1.4 | x
C=CC[C@]1(O)CCC2C3CCC4=CC(=O)CCC4=C3C=C[C@@]21C (some centres undefined) | x | 0.72
COc1ccc2oc3c(c2c1)NC(=O)CN=C3c1ccc(F)cc1 | 3.0 | 0.25
CN1C(=O)CN=C(c2ccccc2)c2cc([N+](=O)[O-])ccc21 | x | -0.33

Gathered by group: those above with an NH in an aromatic ring
smiles | Ab BasE inh | KSHV LANA nucl
CC1=NN(c2ccccc2)C(=O)/C1=C\c1c(O)[nH]c(=O)[nH]c1=O | 1.0 | 0.76
Brc1ccc2[nH]cc(/C=N/N3CCCCC3)c2c1 | -1.5 | x

(next part)
smiles | Ab BasE inh | KSHV LANA nucl
Cc1cccc(NC(N)=S)c1 | 0.4 | -1.7
OC1(c2ccc(F)cc2)CC2CCC(C1)N2Cc1nnnn1C1CCCCC1 (centres undefined) | 1.7 | 0.0095
CCN1C(=O)C2(Sc3ccccc3C2=O)C(=O)N(CC)C1=S | 4.6 | x
CCOC(=O)CN1C(=O)C2(C(C(=O)OCC)=C(N)OC3=C2C(=O)CC(C)(C)C3)c2ccccc21 (centres undefined) | 1.4 | x
COc1ccc2[nH]cc(CN(C)C)c2c1 | -1.6 | 1.3
CC1CC2(O)c3no[n+]([O-])c3CCC2N1O (centres undefined) | 1.3 | 0.063
COC(=O)c1ccccc1N=Cc1c(O)[nH]c(=S)[nH]c1=O | 3.8 | x
O=C1NC(=O)C(=Cc2ccc(Sc3ccc(Cl)cc3)o2)C(=O)N1 | 1.9 | 0.53
COc1cc(C(=O)CN2CCOCC2)cc(OC)c1OC | -0.5 | x
O=C(c1cc2c(s1)CCCCCC2)N1CCC2(CC1)OCCO2 | 4.2 | -0.093
Cn1c(C(F)(F)F)nn(CN2CC=C(c3ccccc3)CC2)c1=S | 0.7 | x
Cc1ccc2c(c1)C1CN(C)CCC1N2C(=O)Nc1cccc(C(F)(F)F)c1 (centres undefined) | 1.4 | x
CCCCC/C=C\C=C\[C@H](CCCCCCCC(=O)O)OO | -1.2 | -0.23
O=C1NC(=O)N(Cc2ccccc2)C(=O)/C1=C\N1CCCc2ccccc21 | -0.9 | -1.2
Cc1cc(N)n(C2CCN(C)CC2)n1 | 0.2 | -0.58
N#CC(C#N)=Cc1cccn1-c1ccc(Cl)cc1 | 0.6 | -0.72
CC(C)NCc1ccc2c(c1)OCO2 | -1.4 | 0.21
CC(=O)O[C@]1(C)C(=O)OC/C2=C/CN(C)CCC(OC(=O)[C@@](O)(C(C)O)C[C@@H]1C)C2=O (some centres undefined) | -0.7 | 0.79
O=c1[nH]c2ccccc2n1CCCN1CCC(n2c(=O)[nH]c3cc(Cl)ccc32)CC1 | -1.1 | -0.21&0.45&-0.28
CCOC(=O)CC1=C(C(=O)OCC)C2(C(=O)N(C)c3ccccc32)C(C#N)=C(N)O1 (centres undefined) | -0.6 | 0.33
O=C(CN1CCCC1=O)NCCc1ccccc1 | 2.7 | 0.51
CC(C)(C)c1c(O)[nH]c(=S)[nH]c1=O | 1.6 | -0.11
COc1ccc(C)cc1CCN | -1.3 | x
CN(C)c1ccc(P(=S)(N(C)C)N(C)C)cc1 | 0.5 | x
O=C(NC1CN2CCC1CC2)c1cccc(Cl)c1 (centres undefined) | -3.7 | x
CC(C)(C)c1cc(C=C(C#N)C#N)cc(C(C)(C)C)c1O | -1.5 | 2.4
Cc1ccc(NC2=NCCS2)c(C)c1 | 1.5 | -0.049
CCN(CC)P1(=S)N(c2ccccc2)N=C2C=C(C)c3ccccc3N21 (centres undefined) | -1.0 | x
Cc1cc(C(=O)O)c(C)n1C1CC1 | 1.1 | x
C=C1CC23C[C@@H]4CN5C[C@]6(C)C[C@H](OC(C)=O)C[C@@]7(C2[C@H](O)[C@@H]1C(O)C3(O)C57)C46 (some centres undefined) | -2.7 | 0.52
Cc1ccc(S(=O)(=O)N2CCCCC2c2cccnc2)cc1 (centres undefined) | x | 1.5
CC1(C)[C@@H](O)C[C@H]2[C@](C)(O)[C@@H]3CCC4[C@@H](O)[C@@]3(C[C@@H](O)[C@@]21O)C[C@@]4(C)O | x | 0.57
Cc1cccc(NC(=O)OC2CN3CCC2CC3)c1 (centres undefined) | x | -0.8
NCCc1nc2ccc(Cl)cc2[nH]1 | -4.7 | -0.85
CC1=C2CCC3C(CC[C@]4(C)C(=O)CCC34)[C@@]2(C)CCC1=O (some centres undefined) | 2.9 | 0.63
CN(C)C(=O)C(OC(=O)c1cn(C)c2ccccc12)c1ccccc1 (centres undefined) | 1.4 | x
CSc1nc2cccc(F)c2c(=O)n1-c1ccc(C)c(C)c1 | -0.8 | x
Cc1ccc2[nH]cc(CC(C)N)c2c1 (centres undefined) | 1.7 | x
COc1cc2c(cc1O)CC1c3c(cc(O)c(OC)c3-2)CCN1C (centres undefined) | -1.9 | -0.66
O=c1[nH]c(=O)n(-c2ccccc2F)c(O)c1C=NCCC1=CCCCC1 | 3.3 | x
CCC(=O)Nc1ccccc1N1CCN(C)CC1 | 0.3 | -0.65
CC12CC(c3ccccc3O1)C(C(=O)O)C(=O)N2CCc1ccc(S(N)(=O)=O)cc1 (centres undefined) | -1.5 | -0.57
CCCCn1c(N)c(C(=O)OC)c2nc3ccccc3nc21 | -5.0 | x
CC(C)(C)CC(=O)NC1CCSC1=O (centres undefined) | 0.3 | 0.69
C[C@]12CC[C@H]3[C@@H](CCC4=CC(=O)CC[C@@H]43)[C@@H]1CC[C@@H]2O | x | 0.22
CN(C)C(=O)Oc1ccc2cc(-c3ccccc3)c(=O)oc2c1 | -1.4 | 1.3
C[N+]1(CC2COC(c3ccco3)O2)CCCCC1 (centres undefined) | -0.1 | x
Cc1cc(N2CCNCC2)nc(C(C)C)n1 | -0.5 | 0.084
N#CC(C#N)=Cc1sc2ccccc2c1Cl | -2.2 | -0.25
O=C(Nc1ccc(Cl)cc1)OC1CN2CCC1CC2 (centres undefined) | x | -1.1
Cc1cccc(NC2=NCCCS2)c1 | -0.7 | x
CN(C)C(=O)Oc1nnc(SCCS(=O)(=O)c2ccc(F)cc2)n1-c1ccccc1 | 1.7 | x
O=C(NC(=O)c1ccccc1Cl)Nc1ccc2c(c1)S(=O)(=O)C=C2 | 0.1 | x
O=C(O)Cc1ccc2c(c1)OCO2 | 2.0 | -0.36
Cc1cc(N2CCNCC2)nc(C)n1 | -1.1 | 0.94
CN(N)c1ccccc1 | -0.5 | x
c1ccc(N=Nc2ccccc2)cc1 | -1.0 | 0.45
CO/C1=C\C(C)=C\[C@@H](C)[C@@H](O)[C@H](C)C/C(C)=C/C=C/[C@H](OC)[C@@H]([C@@H](C)[C@@H](O)[C@H](C)[C@H]2C[C@@H](O)[C@H](C)[C@@H](C(C)C)O2)OC1=O | 0.7 | -0.26

From PubChem

Only part of the results is shown (hit frequency here may not be typical).
